Sfp PPTase inh: qHTS Assay for Inhibitors of Bacillus subtilis Sfp phosphopantetheinyl transferase (PPTase); 4'-phosphopantetheinyl transferase ffp (Bacillus subtilis), Q9F4F7; Biochemical Sfp PPTase activity, qHTS; Potency, µM, inactives show max response, negative = inhibition, actives largely listed as inhibitors; hit rate 3.5% among 310,000; active = well fitted inhibition curve with a large enough effect; inconclusive = small, poorly fitted or top-dose-only effect, or another doubt; inactive = no such curve, though single readings can be large or run the other way;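 note: the enzyme is Sfp with the accession as filed and its product quenches rhodamine fluorescence; potency is the fitted concentration of half-maximal effect; 0% = enzyme reaction without inhibitor and -100% = no enzyme wells; top concentration of the series not given in the record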
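Fluorescence-quenching assay: 15 nM Sfp-PPTase preincubated 15 min at room temperature with compound, then 5 uM rhodamine-CoA and 12.5 uM BHQ-2-labelled YbbR peptide added. Fluorescence (ex 525/em 598 nm) read at start and after 30 min; difference gives rate.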
gsp antag: qHTS for Antagonists of gsp, the Etiologic Mutation Responsible for Fibrous Dysplasia/McCune-Albright Syndrome: qHTS | gsp-mutant cells, cAMP HTRF, 30 min; control for the full effect not named in the record | Potency, µM (doses to about 76.9 µM), inactives show at the highest dose activity change, negative = inhibition, actives largely listed as inhibitors | hit rate 0.4% among 340,000; active = falling curve of any shape with a large fitted effect; inconclusive = falling curve, mostly with a smaller effect; inactive = flat or rising curve; cell line not stated here;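 note: intracellular cAMP measured with PDE inhibitor Ro 20-1724 present during compound exposure; potency is the fitted concentration of half-maximal effect; % is set by controls: 0 for no effect and ±100 for the full control effect; nearly all actives have a fitted effect of over 65% in size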
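HTRF cAMP read-out (cAMP-d2 plus anti-cAMP antibody-K in lysis buffer, 30 min RT). Before lysis, cells are exposed to compounds with […] for 30 min at 37C in DPBS containing Ca/Mg, BSA and Tween 20.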
ClpP mod: qHTS Assay for Activators of ClpP; ATP-dependent Clp protease proteolytic subunit (Bacillus subtilis (strain 168)), P80244; purified B. subtilis ClpP, FRET peptide cleavage, 20 min; Potency, µM (series often up to 57.5 µM), inactives show at the highest dose activity change, negative = active; hit rate 1.9% among 340,000; AID 651965, 2013; active = well fitted falling curve with a large enough effect; inconclusive = small, poorly fitted or top-dose-only effect; inactive = no such curve, though single readings can be large or run the other way; note: potency is the fitted concentration of half-maximal effect; the source files actives as falling curves though it sought activators and does not explain the sign; nearly all actives have a fitted effect of over 65% in size; many hits overshoot -100%
Target sequence (P80244 whole entry, looked up): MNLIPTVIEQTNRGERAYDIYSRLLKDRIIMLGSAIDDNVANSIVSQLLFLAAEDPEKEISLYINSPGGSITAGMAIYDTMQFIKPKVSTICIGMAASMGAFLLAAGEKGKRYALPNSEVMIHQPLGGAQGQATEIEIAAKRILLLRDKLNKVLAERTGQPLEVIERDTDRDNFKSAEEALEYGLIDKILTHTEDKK
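Purified B. subtilis ClpP, 10 microg/mL final in Tris/HCl pH8 with KCl, BSA, glycerol and Tween-20, cleaved an Abz/nitrotyrosine-quenched decapeptide. Fluorescence (ex 320, em 430) was read at 0 and 20 min at room temperature. Delta was normalized to 5.8 microM ADEP and DMSO/no-enzyme controls.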
gsp ag: qHTS for Agonist of gsp, the Etiologic Mutation Responsible for Fibrous Dysplasia/McCune-Albright Syndrome: qHTS; hit rate 0.13% among 340,000; AID 624287, 2012; Potency, µM (highest dose often 76.9 µM), without a hit: at the highest dose activation (cAMP increase), most hits filed as activators; gsp mutant cells, cAMP HTRF, 30 min; control for the full effect not named in the record; active = well fitted activation curve with a large enough effect; inconclusive = small, poorly fitted or top-dose-only effect, or another doubt; inactive = no such curve, though single readings can be large or run the other way; cell line not stated here;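 note: phosphodiesterase inhibitor Ro 20-1724 added with compounds to block cAMP breakdown; potency is the fitted concentration of half-maximal effect; nearly all actives have a fitted effect of over 60% in size; about a fifth of the inactives were tested at one dose only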
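Cells stably selected in G418 were plated at 2000/well, grown 16-24 hr, then given compounds in DMSO with the PDE inhibitor […] (300 uM solution added) for 30 min at 37C; cAMP was read by HTRF.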
Menin MLL FP FL: qHTS Assay for Inhibitors Targeting the Menin-MLL Interaction in MLL Related Leukemias: Competition With Fluorescein Labeled MLL-derived Peptide | Fluorescence polarization, fluorescein-MLL peptide displacement from menin | FP activity change, % at 61.4 µM | 290,000 tested, under 10 active; inconclusive = falling polarisation curve, or a change in total fluorescence; inactive = total fluorescence flat and polarisation flat or rising; no compound was filed as active; the % refers to the polarisation; negative = inhibition;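 note: % of control where 0% means no effect; inhibitors lower the polarisation; unlabelled MLL peptide was the positive control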
TRPV1 potentiator: HTS Assay for Compounds that Act as Potentiators of the Vanilloid Receptor 1 | Transient receptor potential cation channel subfamily V member 1 (Homo sapiens), Q8NER1 | TRPV1-expressing cells, Fluo-8 calcium influx, capsaicin EC20 potentiation; host cell line not named in the record; control for the full effect not named in the record | potentiation, % at 8.33 µM | hit rate 0.02% among 320,000; active means potentiation above 80%; inconclusive means 30% to 80%; inactive means below 30%; note: 0% is about no effect
Target sequence (Q8NER1 whole entry, looked up): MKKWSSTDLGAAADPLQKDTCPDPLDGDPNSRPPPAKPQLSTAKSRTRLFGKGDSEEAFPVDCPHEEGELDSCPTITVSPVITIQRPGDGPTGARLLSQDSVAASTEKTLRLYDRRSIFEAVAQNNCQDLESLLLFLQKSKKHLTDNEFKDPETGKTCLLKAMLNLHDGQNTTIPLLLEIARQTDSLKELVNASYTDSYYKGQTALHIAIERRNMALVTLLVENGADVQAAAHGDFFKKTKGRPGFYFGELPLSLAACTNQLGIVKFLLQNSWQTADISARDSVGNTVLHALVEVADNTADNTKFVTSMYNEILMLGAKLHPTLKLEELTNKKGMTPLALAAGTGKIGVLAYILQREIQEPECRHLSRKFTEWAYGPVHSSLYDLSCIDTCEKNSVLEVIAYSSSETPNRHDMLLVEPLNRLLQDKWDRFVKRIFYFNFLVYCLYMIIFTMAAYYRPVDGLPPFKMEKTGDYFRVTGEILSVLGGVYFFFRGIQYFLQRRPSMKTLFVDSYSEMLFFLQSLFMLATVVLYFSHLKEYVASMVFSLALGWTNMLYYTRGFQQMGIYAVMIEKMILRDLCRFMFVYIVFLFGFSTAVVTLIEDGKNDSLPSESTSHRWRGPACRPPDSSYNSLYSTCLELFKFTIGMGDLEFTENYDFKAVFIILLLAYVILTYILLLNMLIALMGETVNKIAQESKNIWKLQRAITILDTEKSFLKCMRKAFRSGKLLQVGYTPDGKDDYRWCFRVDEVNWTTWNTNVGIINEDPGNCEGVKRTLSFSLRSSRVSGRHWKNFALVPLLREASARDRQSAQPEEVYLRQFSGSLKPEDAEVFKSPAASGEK
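Fluo-8 calcium influx in TRPV1-expressing cells, kinetic read (ex 480/em 520 nm). Compound added and read 3 min for agonist activity, followed by capsaicin at EC20 final and 2 min further read for enhancement.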
CtBP-E1A inh: qHTS Assay for Inhibitors of the CtBP/E1A Interaction; AID 651724, 2012; hit rate 0.49% among 340,000; CtBP / adenovirus E1A interaction (AlphaScreen); activity change, % (test concentration not listed); AlphaScreen GST-E1A/His-CtBP binding, 1536-well; active compounds read low; control for the full effect not named in the record; in the data active means activity change below about -65%; inconclusive means about -30% to -65%; inactive means above about -30%; note: % is set by controls: 0 for no effect and ±100 for the full control effect
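GST-E1A and His-tagged CtBP (125 nM each as 5X stock) were preincubated with pin-transferred compound for 2 h at 37 °C in the dark, then glutathione donor and nickel acceptor beads were added for 1 h before AlphaScreen reading.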
An asterisk follows results filed as active; ? = inconclusive; · = not tested or not shown; [ ] = dose if it differs, or a comment. Compounds were not picked by outcome; overall some 5.3% were active at least once.

SMILES | Sfp PPTase inh | gsp antag | ClpP mod | gsp ag | Menin MLL FP FL | TRPV1 potentiator | CtBP-E1A inh
CCCCN(C(=O)c1ccc(-c2ccc([N+](=O)[O-])cc2)o1)c1c(N)n(CC(C)C)c(=O)[nH]c1=O | · | 10% | 0.0% | -30% | · | 2 | -22
O=C(Nc1cc(S(=O)(=O)N2CCCCC2)ccc1O)c1ccccc1NS(=O)(=O)c1ccc(F)c(F)c1 | 2% | -25% | -23% | -14% | 4.9 | 28 | -2
Cc1ccc2[nH]c(=O)cc(C(=O)OC(C)C)c2c1 | -3% | 6% | · | 0% | 7.0 | -16 | 1
O=C(O)c1cc(S(=O)(=O)N2CCCCC2)ccc1N1CCCCC1 | · | 3% | 3.4% | -18% | · | 3 | 7
C=CCN(Cc1nc(-c2cc(OC)ccc2OC)oc1C)C1CCS(=O)(=O)C1 (stereo not given) | -15% | 1% | · | 9%[15.4 µM] | -1.3 | 7 | 8
Cc1cc(C(F)F)n2ncc(C(=O)NCc3ccc(F)cc3)c2n1 | -6% | 10% | · | 28%[15.4 µM] | 0.8 | 13 | 4
COc1ccc(CC(=O)N(Cc2ccccc2)c2ccc(C)cc2)cc1OC | 11% | -28% | -0.4% | -33%[inhibitor] | · | 3 | 0
COC(=O)CCCC(=O)Nc1ccc(Br)cc1 | 10% | 6% | -2.9% | 5% | 2.7 | -23 | 2
CC(C)=C1SC(N2CCN(c3ccc(C)cc3)CC2)=NC1=O | 1% | -5% | 0.6% | -19% | 4.6 | -12 | 2
CC(C)OCC1CC(CC(=O)Nc2ccc([N+](=O)[O-])cc2)C(=O)O1 (stereo not given) | 7% | · | · | -2%[15.4 µM] | 0.7 | 0 | -20
O=C(O)Cn1c(CCS(=O)(=O)c2ccc(Br)cc2)nc2ccccc21 | 10% | 0% | · | 4%[15.4 µM] | -1.3 | 5 | 1
Cc1ccc(-c2nn3c(C)nnc3s2)cc1NC(=O)COc1ccc(Cl)cc1 | ? | 3% | 0.7% | -55%[inhibitor] | 10 | · | 9
CCOC(=O)C1CCN(C(=O)Cc2c(F)cccc2Cl)CC1 | 9% | 4% | 2.7% | -32%[inhibitor] | 1.0 | 1 | 5
NC(=O)COC(=O)c1c2c(nc3ccccc13)CCCCC2 | -21% | -6% | -15% | -5% | -4.2 | 6 | -6
COc1ccc(Oc2nc(-c3ccccn3)nc3ccccc23)cc1 | 40µM* | -21% | 0.5% | 7%[15.4 µM] | -0.9 | · | -66*
COc1ccc([N+](=O)[O-])cc1NC(=O)c1ccc(-n2nc(C)cc2C)cc1 | 20% | · | · | -1%[15.4 µM] | 0.6 | 11 | -3
Cc1cccc(OCCCn2c(CO)nc3ccccc32)c1 | 9% | 1% | -1.3% | -18% | 0.0 | -12 | -3
Cc1[nH]c(=O)c(C#N)cc1-c1ccccc1 | 3% | 7% | ? | -26% | 1.0 | -1 | 15
Cc1ccc(S(=O)(=O)Nc2ccccc2C(=O)N2CCCCC2)cc1 | 19% | 2% | 0.2% | -36% | · | -1 | 10
CCc1nc(SCc2ccccn2)c2c(=O)n(C)c(=O)n(C)c2n1 | 7% | -4% | 1.8% | ? | 3.5 | 7 | 1
CCCCCOc1ccc(CSC2=NCCN2)cc1[N+](=O)[O-] | -6% | -3% | 0.9% | -25% | · | -5 | ·
O=C(CC1NC(=O)NC1=O)Nc1cccc2ccccc12 (stereo not given) | 19% | 8% | -0.5% | -17% | 1.9 | -13 | 4
Cc1ccc2[nH]c(=O)c(CN(CCO)C(=O)NCc3ccccc3)cc2c1 | 4% | 5% | -21% | -1% | -0.4 | 6 | 0
CCCCC(=O)NC(c1cccc([N+](=O)[O-])c1)c1c(OC(C)=O)ccc2ccccc12 (stereo not given) | 14% | ? | -3.2% | 1% | -1.2 | 21 | -4
CC(=O)c1c(C)oc2ccc(N(C(C)=O)S(=O)(=O)c3cccc([N+](=O)[O-])c3)cc12 | 10% | 1% | 1.0% | -16% | 0.1 | 9 | ·
N#Cc1nc(COc2ccc(Br)cc2)oc1N1CCN(Cc2ccccc2)CC1 | 11% | -7% | -4.3% | -28% | 5.9 | 4 | ?
CCCOc1ccc(/C=N/NC(=O)c2ccc(Cn3cc([N+](=O)[O-])cn3)o2)cc1 | -1% | 5% | -3.0% | -3% | 6.2 | -4 | 1
CC1CCCCN1C(=O)COC(=O)C1CCN(S(=O)(=O)c2ccc(Cl)c(C(F)(F)F)c2)CC1 (stereo not given) | · | 5% | · | 0%[15.4 µM] | · | -5 | -14
CCCCNC(=O)CN(Cc1ccco1)S(=O)(=O)c1ccc(C(C)=O)cc1 | · | -5% | -6.6% | -31% | · | -12 | -5
NC(=O)c1cc([N+](=O)[O-])ccc1N1CCCCC1 | -2% | 2% | -5.6% | -11% | -0.3 | -5 | 6
COC(=O)c1sc2ccccc2c1NC(=O)c1ccc(S(=O)(=O)N2CCCCC2)cc1 | 6% | 3% | 0.5% | -2%[15.4 µM] | 0.7 | 0 | -6
Cc1ccsc1/C=N/NS(=O)(=O)c1ccc([N+](=O)[O-])cc1 | 4% | -2% | 1.5% | 0% | -0.2 | -11 | 0
CCCCC(=O)Nc1ccc(S(=O)(=O)Nc2nccc(C)n2)cc1 | 6% | 0% | -0.2% | -19% | 24 | -6 | ·
Clc1nnc2ccc(-c3ccccc3)nn12 | 2% | 2% | 25µM* | ? | 2.9 | -10 | -6
O=C(OCCN1C(=O)c2cccc3c(N4CCOCC4)ccc(c23)C1=O)c1ccc(Cl)cc1 | -7% | -4% | 4.4% | 8% | ? | 2 | 1
CCOC(=O)C1=C(COC(=O)c2cccnc2Cl)NC(=O)NC1C (stereo not given) | · | 12% | · | -9%[15.4 µM] | · | 4 | 7
Cc1ccn2c(=O)c(C(=O)NC3CCCCC3C)c(O)nc2c1 (stereo not given) | · | 3% | -3.9% | 0%[15.4 µM] | · | ? | -7
C/C(=C(\C#N)C(=O)NC1CCCCC1)N(C)C | 12% | 3% | -1.2% | 3% | 3.2 | 2 | -2
Cc1ccc2oc(-c3cccc(NC(=O)C4CCCO4)c3)nc2c1 (stereo not given) | 7% | -27% | 28µM* | 15% | 2.4 | 3 | -1
CC1(C)OC(=O)C(=CNNc2c(Cl)cc(Cl)cc2Cl)C(=O)O1 | -9% | 13% | 0.4% | -2%[15.4 µM] | 2.4 | 8 | 3
Cc1nc(SCc2ccc(Br)cc2)[nH]c(=O)c1C | 14% | -18% | 0.2% | -5% | 1.4 | -5 | 6
CCC(NC(=O)CCc1c(C)c2cc3c(-c4ccccc4)coc3cc2oc1=O)C(=O)O (stereo not given) | -6% | ? | -5.2% | -7% | 5.6 | -11 | -77*
C[C@H](NC(=O)c1nc[nH]c1C(=O)N[C@@H](CCCCN)C(=O)OC(C)(C)C)C(=O)OC(C)(C)C | · | 10% | 0.0% | -37%[inhibitor] | · | ? | -5
CCOc1ccc(OCc2ccc(C(=O)N/N=C(\C)c3ccccn3)cc2)cc1 | 16% | 0% | · | -1% | -1.1 | 1 | ?
CCCN(CCC)C(=O)c1c(C)[nH]c(C(=O)OCC)c1C | -15% | · | · | · | -0.7 | -16 | ·
Cc1ccc(NC(=O)[C@@H]2CCCN2C(=O)[C@@H]2Cc3ccccc3CN2)c(C)c1 | 13% | 1% | -4.2% | 15% | 4.5 | -8 | -1
CC(=O)c1c(C)[nH]c(C(=O)Nc2cccc3ccccc23)c1C | -9% | -15% | · | 0% | -0.9 | 0 | -2
O=[N+]([O-])c1cc(S(=O)(=O)C(F)(F)F)ccc1N1CCN(c2ccccc2)CC1 | 2% | -7% | -0.9% | 6%[15.4 µM] | 1.7 | 2 | 8
CN(C)C(=O)CCc1ccc2c3c([nH]c2c1)[C@]1(C)[C@@H](C(=O)N2CCOCC2)C[C@H](CC(=O)NCCN2CCOCC2)C(=O)N1CC3 | · | -1% | -2.3% | · | · | · | 1
CN1C(=O)/C(=C/c2cc3c(cc2Br)OCO3)NC1=S | 5% | 1% | · | ? | 11 | 17 | 3
S=C1N(c2ccccc2)CN(CCN2CCOCC2)CN1c1ccccc1 | 14% | -23% | -4.1% | -10%[15.4 µM] | -1.1 | -7 | 7
COC(=O)c1ccc(NC(=S)NC2CCc3ccccc32)cc1 (stereo not given) | -2% | -2% | · | -15%[15.4 µM] | 1.9 | -7 | -1
Fc1ccccc1Nc1nc(Cl)nc(Cl)n1 | 10% | 14% | ? | -4%[15.4 µM] | 2.2 | 8 | 10
CCS(=O)(=O)c1ccc2c(c1)N(S(C)(=O)=O)CC(C(=O)NC1CC1)O2 (stereo not given) | 25% | 13% | 0.1% | -6% | -0.1 | ? | 2
O=c1c(Cl)c(Cl)cnn1Cc1nnc(-c2ccccc2Br)o1 | -6% | -1% | · | 9% | -1.4 | -2 | -1
CN1CCN(S(=O)(=O)c2cc([N+](=O)[O-])ccc2N2CCCCCC2)CC1 | 3% | -12% | -0.1% | -11% | 4.7 | -32 | -5
CC(=O)Nc1ccc(-c2cc(-c3ccc(NC(C)=O)cc3)nc(-c3ccc(NC(C)=O)cc3)n2)cc1 | 7% | 3% | 5.6µM* | -8% | · | -7 | 23
N/C(=N\OC(=O)Cc1cccs1)c1cccc([N+](=O)[O-])c1 | -6% | 12% | 0.9% | 1%[15.4 µM] | 5.2 | ? | -2

Screening results from PubChem.
